VDR inhibitor: Inhibitors of the vitamin D receptor (VDR): qHTS; Vitamin D3 receptor (Homo sapiens), P11473; VDR-SRC2-3 peptide fluorescence polarization, 2 h; AID 504847, 2011; Potency, µM, for the others: max response, negative = inhibition, usual class: inhibitors; 0.93% of 400,000 active; active = well fitted inhibition curve with a large enough effect; inconclusive = small, poorly fitted or top-dose-only effect, or another doubt; inactive = no such curve, though single readings can be large or run the other way; note: series mostly up to about 120 µM
Target sequence (P11473 whole entry, looked up): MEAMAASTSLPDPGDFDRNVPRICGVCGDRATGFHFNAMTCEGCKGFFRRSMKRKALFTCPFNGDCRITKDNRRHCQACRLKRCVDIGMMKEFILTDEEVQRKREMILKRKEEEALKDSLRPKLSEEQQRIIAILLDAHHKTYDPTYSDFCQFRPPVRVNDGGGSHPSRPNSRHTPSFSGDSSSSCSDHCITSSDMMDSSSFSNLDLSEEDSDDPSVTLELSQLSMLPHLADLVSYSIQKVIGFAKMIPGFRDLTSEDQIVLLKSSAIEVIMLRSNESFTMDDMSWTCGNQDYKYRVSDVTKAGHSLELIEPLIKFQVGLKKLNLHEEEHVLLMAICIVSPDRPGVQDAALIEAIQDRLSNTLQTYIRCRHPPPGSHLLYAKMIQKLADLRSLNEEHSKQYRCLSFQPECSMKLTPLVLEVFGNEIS
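Two reagent solutions held at 4 deg C in the dark were dispensed, compounds pinned at 23 nl, and the mixture incubated 2 h at room temperature. Read-out: fluorescence polarization of VDR–SRC2-3 peptide binding.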
* = called active by the depositor; u = inconclusive; & = joins results of further samples. % is set by controls: 0 for no effect and ±100 for the full control effect; potency is the fitted concentration of half-maximal effect. Some of the compounds tested, so the mix of outcomes need not match the whole.

SMILES | VDR inhibitor
COCCCNc1nc(N)c([N+](=O)[O-])c(N2CCCCCC2)n1 | 7.4%
COc1ccc(/C=N/Nc2ccc([N+](=O)[O-])cc2)cc1O | 10.2%
CC(C)NCCOCCSc1ccc(Cl)cc1 | 11.0%
COc1cc(/C=C/C(=O)NCCc2ccc(S(N)(=O)=O)cc2)ccc1OCC#N | 9.5%
O=C(Nc1ccc2c(c1)OCCO2)C1CC(c2ccc(F)cc2)=NO1 (stereo not drawn) | -10.7%
O=C(Nc1ccccc1Cl)c1ccc(-n2cccn2)c([N+](=O)[O-])c1 | -6.7%
COc1cc(C2C(C#N)=C(N)Oc3n[nH]c(-c4ccncc4)c32)cc(OC)c1OC (stereo not drawn) | -10.2%
Cc1ccccc1-n1nnnc1SCC(=O)N(C)C1CCS(=O)(=O)C1 (stereo not drawn) | 0.7%
COc1ccc(CNC(=O)CCCN2C(=O)CCn3nc(-c4cn(C)c5ccccc45)cc32)cc1 | 1.5%
Cc1cc2ncn(CC(O)COc3cccc(C(=O)O)c3)c2cc1C (stereo not drawn) | -17.0%
CC(C)CNS(=O)(=O)c1cc(C(=O)OCC(=O)N(C)C2CCS(=O)(=O)C2)c(Cl)cc1Cl (stereo not drawn) | 9.1%
O=c1c2ccccc2nnn1CSc1nnc2ccccn12 | -7.2%
CCOC(=O)C1=C(C)NC(C)=C(C(=O)OC)C1c1ccco1 (stereo not drawn) | 4.0%
COC(=O)c1cccc(S(=O)(=O)N2CCOCC2)c1 | 1.6%
COc1cccc(C(=O)NC2CCCC2)c1 | 4.3%
C/C(CC(=O)NCCCN1CCOCC1)=N\NC(=O)COc1ccc(C)cc1 | -19.9%
COc1cccc(C(=O)Nc2cccc(C(=O)OCc3cc(=O)n4nc(C5CC5)sc4n3)c2)c1 | -10.3%
Cc1c(NS(C)(=O)=O)cccc1-c1nc2ccccc2s1 | -3.9%
Cc1ccc(NC(=O)CN2C(=O)COc3ccc(S(=O)(=O)N4CCCCCC4)cc32)cc1C | 5.6%
CC12CCC(C(=O)NCc3cccnc3)(OC1=O)C2(C)C (stereo not drawn) | 5.3%
CCOC(=O)N(Cc1ccccc1)C(C(=O)O)C(C(=O)O)N(Cc1ccccc1)C(=O)OCC (stereo not drawn) | 8.6%
Cc1nn(Cc2ccccc2)c(C)c1NC(=O)CSc1nc(C2CC2)nc2c1cnn2-c1ccccc1 | -3.9%
COC(=O)c1cccc(NC(=O)c2nn(C(C)C)c(=O)c3ccccc23)c1 | 4.3%
O=C(NNC1=NCCC1)c1cccc(S(=O)(=O)N2CCOCC2)c1 | -18.3%
O=c1c2ccccc2ncn1/N=C/c1ccccc1 | -4.8%
COc1ccc(-c2cc3ccccc3oc2=O)cc1NC(=S)NC(=O)c1ccc2c(c1)OCCO2 | -7.4%
CCc1ccc(-n2c(CSc3nnnn3-c3ccccc3)nc3ccccc3c2=O)cc1 | -20.8%
COc1nc(-c2ccccc2)c2cc(Br)ccc2n1 | -18.0%
CC1=C(C(=O)Nc2cccc(Cl)c2)C2(CCCCCC2)OC1=O | 10.3%
COc1ccccc1NS(=O)(=O)c1cccc2cccnc12 | -10.0%
CC(NCC(=O)Nc1ccccc1C(=O)NC1CC1)c1ccc(S(N)(=O)=O)cc1 (stereo not drawn) | 1.7%
Cc1ccc(CNC(=O)NCc2noc3ccc(C)cc23)cc1 | 12.0%
CCCN1C[C@H](CSC)C[C@@H]2c3cccc4[nH]cc(c34)C[C@H]21 | -13.1%&5.6%&-12.5%
Cc1cccc(NC(=S)N(CCCN2CCOCC2)C(C)c2cc3ccccc3o2)c1C (stereo not drawn) | 3.9%
O=C(NCC(c1ccccc1)c1ccccc1)c1nn(-c2ccccc2F)nc1CO | 10.1%
CCCCNC(=O)[C@@H]1CSC2c3ccccc3C(=O)N21 (stereo partly drawn) | 4.4%
CN(c1cccc(NC(=O)c2ccccc2N(C)S(=O)(=O)c2ccccc2)c1)S(C)(=O)=O | -8.9%
COc1ccc(OC)c(NC(=O)CSC2=NCCS2)c1 | 6.7%
CCCCOc1cccc(C2C(C(=O)c3cccs3)=C(O)C(=O)N2Cc2cccnc2)c1 (stereo not drawn) | -16.6%
Cc1cc(S(=O)(=O)c2ccc([N+](=O)[O-])cn2)ccc1Br | u
CC1(C(=O)O)CC(C)(C(=O)O)CC(C)(C(=O)O)C1 (stereo not drawn) | 0.0%
CNc1nc(C)c(C(=O)OCC(=O)OC)s1 | 7.6%
COc1ccc(/[N+]([O-])=C/c2ccco2)cc1 | u
O=c1oc2ccccc2cc1-c1ccc(O)cc1O | 5.1%
CN(C)C(CNC(=O)c1oc2ccccc2c1CSc1ncn[nH]1)c1ccco1 (stereo not drawn) | -11.3%
Cc1cc(C(F)(F)F)nn1-c1nc(-c2ccccc2)cc(C(F)(F)F)n1 | -7.9%
CCC(=O)Oc1ccc(-c2nc3ccccc3c(=O)o2)cc1 | -17.2%
O=C(Nc1cccnc1Cl)c1ccc(Cl)c([N+](=O)[O-])c1 | 4.3%
CCOC(=O)c1ccc(COC(=O)CCc2nc(-c3ccccc3)c(-c3ccccc3)o2)cc1 | -5.9%
OC(c1ccc(Cl)cc1Cl)C(Cc1cccnc1)n1cncn1 (stereo not drawn) | -4.6%
CC1CCCCN1N=Nc1nc2c([nH]1)c(=O)n(C)c(=O)n2C (stereo not drawn) | -5.1%
COc1ccc(/C=C2\CCc3ccccc3C2=O)c(OC)c1OC | 22.1%
CCOc1ccc(CNC(=O)Cn2nc(C)n3cccc3c2=O)cc1 | 15.1%
O=C1c2ccc3c4c(ccc(c24)C(=O)N1c1cccc(O)c1)C(=O)N(c1cccc(O)c1)C3=O | -7.7%
Cc1ccc(NC(=S)N(CCN2CCOCC2)Cc2ccccc2F)cc1 | -20.9%
CCOc1ccc(CCNC(=O)Cn2ncn3nc(-c4ccc(OC)cc4)cc3c2=O)cc1 | -3.8%
CC1CN(C(=O)CCNC(=O)c2ccc(Br)cc2)CC(C)O1 (stereo not drawn) | -8.9%
CCc1ccc(NC(=O)c2cccc(N3CCCS3(=O)=O)c2)cc1 | 5.1%
O=C(NNC1=NCCCCC1)Nc1cccc(Cl)c1 | -20.9%
CC(C)CN(CC(C)C)S(=O)(=O)N1CCC(C(=O)NCc2ccccn2)CC1 | 6.2%

4 entries out of the list above, sorted by their value in VDR inhibitor, largest number first:
SMILES | VDR inhibitor
CCOc1ccc(CNC(=O)Cn2nc(C)n3cccc3c2=O)cc1 | 15.1%
O=C1c2ccc3c4c(ccc(c24)C(=O)N1c1cccc(O)c1)C(=O)N(c1cccc(O)c1)C3=O | -7.7%
Cc1cc(C(F)(F)F)nn1-c1nc(-c2ccccc2)cc(C(F)(F)F)n1 | -7.9%
CN(C)C(CNC(=O)c1oc2ccccc2c1CSc1ncn[nH]1)c1ccco1 (stereo not drawn) | -11.3%

Other structures.
SMILES | VDR inhibitor
CC(=O)Nc1ccc(NC(=O)c2cc(-c3cc(C)c(C)cc3O)n[nH]2)cc1 | -15.6%
COc1cccc(NC(=O)CSc2nc(N)cc(N)n2)c1 | -9.3%
Cc1ccccc1NC(=O)COC(=O)c1ccc2nc(C)c(C)nc2c1 | -3.3%
CC(=O)Nc1sc(N/N=C/c2ccccc2)nc1-c1ccc(C)cc1 | u
CC(C)(C)NC(=O)/C=N/O | -10.7%
C=CCn1c(N)cc(=O)nc1SCC(=O)Nc1ccccc1C(N)=O | 0.6%
Cn1c(=NC(=O)C2CCN(S(=O)(=O)c3cccs3)CC2)sc2ccccc21 | -4.2%&-5.0%
COc1ccc(S(=O)(=O)N2CCN(Cc3nc4ccc(C)cc4o3)CC2)cc1OC | 17.5%
COc1c(NC(C)=O)c2ccccc2c2ccccc12 | 5.1%
CC1(C)CC(=O)C(C=NCCN2CCNC2=O)=C(O)C1 | -1.3%
O=C1COc2ccc(C(=O)COC(=O)COc3ccccc3[N+](=O)[O-])cc2N1 | 13.9%
CCC1CCC/C1=N\NC(=O)c1ccoc1C (stereo not drawn) | 7.3%
CC1CCN(CC(=O)NNC(=O)c2cccc(Br)c2)CC1 | 3.9%
Cc1ccccc1NC(=O)CCC(=O)OCCCC(F)(F)C(F)(F)F | 0.4%
CCOC(=O)c1c(NC(=O)C2CCCN(S(=O)(=O)c3ccc(C)cc3)C2)sc2c1CCCC2 (stereo not drawn) | -3.3%
NS(=O)(=O)c1ccc(CCNC(=O)CSCc2ccccc2)cc1 | 9.6%
Cc1cccc(OCC(=O)Nc2ccc3c4c(cccc24)CC3)c1C | -29.1%
O=C(O)C1=C[C@H](c2coc3ccccc3c2=O)C[C@H](OCc2ccc(CO)cc2)O1 | 12.2%
CCOC(=O)c1ccc(NC(=O)c2ccc3c(c2)NC(=O)c2ccccc2S3)cc1 | 2.1%
Cc1cc(C)c(OCC(=O)Nc2nc3ccccc3[nH]2)c(C)c1 | -10.6%
CC1=NN(c2ccc(C(=O)O)c(N)c2)C(=O)C1 | -1.0%
C[C@H]1CN(S(=O)C(C)(C)C)[C@@H](CCO)/C1=C\CCO (stereo partly drawn) | -19.8%
O=C(CSc1ccc2ccccc2n1)Nc1ccc(N2CCOCC2)cc1 | -6.6%
Cc1cc(NC(=O)CCC(=O)N(Cc2ccccc2)C(C(=O)NC2CCCC2)c2ccc(C)o2)no1 (stereo not drawn) | 0.0%
COc1cc(CN2CCCC(C)C2)ccc1OCc1ccccc1 (stereo not drawn) | -9.0%
O=C(NCCc1nc(-c2ccccc2)no1)c1ccccc1 | -12.4%
CCOC(=O)c1noc2nc(C)n(CC(=O)NC(C)CC)c(=O)c12 (stereo not drawn) | 6.8%
COc1ccc(Oc2ncc3nc(-c4cc(F)cc(F)c4)c(=O)n(C[C@H]4CCCO4)c3n2)cc1 | -4.9%
COc1ccccc1CCNC(=O)C(=O)NCC1OCCN1S(=O)(=O)c1ccc(OC)c(OC)c1 (stereo not drawn) | -8.9%
O=C(C[C@H]1C[C@H](C(=O)N2CCCCC2)[C@@]2(CCc3ccccc3)c3[nH]c4ccc(Cl)cc4c3CCN2C1=O)NCCN1CCOCC1 | -8.3%
Nc1ccc(C(=O)OCc2nc3cc4ccccc4cc3[nH]2)cc1 | 15.4%
CC(C)NC(=O)Cn1ncn2c(cc3cc(F)ccc32)c1=O | 25.9%
CCN1CCCc2cc(CN(CCN3CCOCC3)C(=S)Nc3cccc(OC)c3)ccc21 | -7.0%
COc1cccc(/C=C/C(=O)N2CCN(S(=O)(=O)c3ccccc3)CC2)c1OC | -6.3%
CCOC(=O)C1CCCN(Cc2ccc(O)c(OC)c2)C1 (stereo not drawn) | 9.1%
COc1ccc(S(=O)(=O)NCc2ccco2)c2ccccc12 | 24.3%
O=C(NCc1ccco1)C(=O)NCC1OCCN1S(=O)(=O)c1ccc(Br)cc1 (stereo not drawn) | 8.0%
O=C(NCc1ccccn1)c1cccc(S(=O)(=O)Nc2ccc(F)cc2)c1 | -0.9%
Cc1ccc(C(=O)NCCSCc2ccc(Cl)cc2Cl)cc1[N+](=O)[O-] | -6.5%
Cc1cc(NC(=O)COC(=O)c2cccc(OCc3ccccc3)c2)no1 | -1.2%

Looked up by structure from the list above:
SMILES | VDR inhibitor
CCN1CCCc2cc(CN(CCN3CCOCC3)C(=S)Nc3cccc(OC)c3)ccc21 | -7.0%
O=C(CSc1ccc2ccccc2n1)Nc1ccc(N2CCOCC2)cc1 | -6.6%
CC1=NN(c2ccc(C(=O)O)c(N)c2)C(=O)C1 | -1.0%
Cc1ccc(C(=O)NCCSCc2ccc(Cl)cc2Cl)cc1[N+](=O)[O-] | -6.5%

Returning to the listing, starting 4 compounds before the break.
SMILES | VDR inhibitor
O=C(NCc1ccco1)C(=O)NCC1OCCN1S(=O)(=O)c1ccc(Br)cc1 (stereo not drawn) | 8.0%
O=C(NCc1ccccn1)c1cccc(S(=O)(=O)Nc2ccc(F)cc2)c1 | -0.9%
Cc1ccc(C(=O)NCCSCc2ccc(Cl)cc2Cl)cc1[N+](=O)[O-] | -6.5%
Cc1cc(NC(=O)COC(=O)c2cccc(OCc3ccccc3)c2)no1 | -1.2%
Cc1cc(N/N=C/c2cccc(Cl)c2)nc(-n2nc(C)cc2C)n1 | -19.0%
O=C(Cn1cnc2c(nnn2Cc2ccc(F)cc2)c1=O)NC1CCCC1 | -4.5%
O=C(CSc1ccccn1)Nc1ccc(Br)cn1 | 4.7%
CC(C)(CNC(=O)COc1ccccc1Cc1ccccc1)N1CCOCC1 | -0.5%
CCOC(=O)c1ccc(NC(=O)c2nc[nH]c2C(=O)NCc2ccccc2)cc1 | -11.8%
CCOc1ccc(NC(=O)Cn2c(=O)n(-c3cccc(Cl)c3)c(=O)c3c2c2cc(C)ccc2n3C)cc1 | -1.4%
COc1ccc(C2SCC(C(=O)NCc3ccc(F)cc3)N2C(C)=O)cc1 (stereo not drawn) | -12.3%
Cc1cc(N)n2nc(-c3ccccc3)cc2n1 | -11.8%
O=C(N/N=C/c1cc(Br)c(Br)o1)c1ccc2c(c1)OCCO2 | -0.7%
COc1ccc(Cn2c(C3CC3)nc3ccc(NC(=O)c4cccnc4)cc3c2=O)cc1 | 7.8%
CCCOC1CCCN(C(=O)CCc2nnc(-c3ccc4c(c3)OCO4)o2)C1 (stereo not drawn) | 8.0%
N#C[C@H](Cc1ccc(O)cc1)c1ccc(O)cc1 | -0.4%
CC(CNC(=O)CCCn1c(=O)c2cccn2c2ccccc21)c1ccccc1 (stereo not drawn) | 7.0%
COC(=O)[C@H](C)NC(=O)NC(C)CCc1ccccc1 (stereo partly drawn) | -3.6%
COc1ccc(C(=O)CC2OC(=O)c3ccccc32)cc1OC (stereo not drawn) | 6.6%
CCc1nnc2n1N=C(c1ccccc1)CS2 | 5.5%
CCc1ccc(S(=O)(=O)c2nnn3c2nc(NCCNC(C)=O)c2cc(Cl)ccc23)cc1 | 0.4%
CC1=C(C(=O)OCC2CCCO2)C(c2ccccc2)C2=C(CCCC2=O)N1 (stereo not drawn) | 3.7%
CC(=O)Nc1ccccc1OCC(=O)c1cc(C)n(Cc2cccs2)c1C | 9.3%
Clc1ccc(-n2nnnc2-c2cnc3ccc(Cl)cc3c2-c2ccccc2)cc1 | 3.3%
COc1ccc(-n2c(C)c(C)c3c(N)ncnc32)cc1 | 5.8%
